Screening results as filed in PubChem.
Cruzain Triton = cruzain (T. cruzi) inhibition with detergent; purified cruzain, Z-FR-AMC fluorescence, 0.01% Triton; Potency, µM, without a hit: max response, negative = inhibition, hits mostly inhibitors; 200,000 compounds, 0.43% hits;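 further: plate controls were neutral wells for no effect and buffer without enzyme for full effect; nearly all actives have a fitted effect of over 40% in size; top concentration of the series not given in the record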
Target sequence (P25779 123-467 limits assumed): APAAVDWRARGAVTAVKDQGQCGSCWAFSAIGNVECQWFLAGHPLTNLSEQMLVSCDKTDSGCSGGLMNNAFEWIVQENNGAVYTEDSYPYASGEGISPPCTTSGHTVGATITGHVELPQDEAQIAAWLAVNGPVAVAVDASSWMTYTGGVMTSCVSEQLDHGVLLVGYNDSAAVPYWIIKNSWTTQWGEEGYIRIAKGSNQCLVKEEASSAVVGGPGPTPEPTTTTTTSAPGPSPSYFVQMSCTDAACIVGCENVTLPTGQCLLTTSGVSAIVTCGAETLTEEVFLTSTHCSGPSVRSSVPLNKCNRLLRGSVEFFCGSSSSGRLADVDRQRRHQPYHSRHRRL
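Detergent-containing arm of a paired screen for aggregation-based inhibition: 0.01% Triton X-100 present. Cruzain at 1.5 nM cleaved 2 uM Z-FR-AMC at pH 5.5 with 5 mM DTT; AMC fluorescence gain over 60 s measured activity.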
NS1 function inh = blocks influenza NS1 protein function; S. cerevisiae slowed by influenza A NS1, growth recovery by OD600; Potency, µM (titrated, usually from 46.1 µM), for the others: at the top dose activity, positive = more growth; 270,000 compounds, 0.4% hits; active means well fitted rising curve with a large enough effect; inconclusive means small, poorly fitted or top-dose-only effect; inactive means no such curve, though single readings can be large or run the other way; further: nearly all actives have a fitted effect of over 50% in size
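S. cerevisiae expressing influenza A NS1, grown in glucose, washed, then diluted 1:100 into pH 6.0 -URA galactose medium with 23 nl compound. Growth recovery read as OD600; NS1-free strain serves as control.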
Marburg entry inh = blocks Marburg virus binding to or entry into cells; Potency, µM (top dose mostly 37.8 µM), inactives show at the top dose activity change, negative = inhibition, usual class: inhibitors; 300,000 compounds, 1.8% hits; Marburg virus pseudotyped entry inhibition, cell reporter; control for the full effect not named in the record; about a third of the inactives were read at about 46 µM; AID 540276; active = well fitted inhibition curve with a large enough effect; inconclusive = small, poorly fitted or top-dose-only effect, or effect the other way; inactive = flat fitted curve, though single readings scatter; tested in HEK293 cells; about a fifth of its hits are not listed in these tables; further: on the % scale 0 is the no-effect control and ±100 the full control effect; luciferase read-out
SARS PLP yeast = SARS-CoV PLP inhibition in yeast. S. cerevisiae expressing SARS-CoV PLpro, growth rescue; control for the full effect not named in the record. Potency, µM (titrated, usually from 32.9 µM), without a hit: at the top dose activity, positive = growth rescue. 330,000 compounds, 0.19% hits; active means well fitted rising curve with a large enough effect; inconclusive means small, poorly fitted or top-dose-only effect; inactive means no such curve, though single readings can be large or run the other way; further: 0% is about no effect; nearly all actives have a fitted effect of over 55% in size; growth read by luminescence after 48 h
Cruzain inh noDet = blocks cruzain activity in detergent-free assay; P25779; purified cruzain, Z-FR-AMC fluorescence, no detergent; Potency, µM, for the others: max response, negative = inhibition, actives largely listed as inhibitors; 200,000 compounds, 2.3% hits; AID 1476;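 further: plate controls were enzyme without inhibitor for no effect and buffer without enzyme for full effect; nearly all actives have a fitted effect of over 40% in size; top concentration of the series not given in the record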
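Detergent-free condition (0.00005% Triton X-100) in acetate buffer pH 5.5 with DTT. 1.5 nM enzyme and compound were pre-mixed 15 min, then 2 uM Z-FR-AMC substrate added; reaction progress from fluorescence change between first and third reads (60 s).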
2A StopGo = lowers the luciferase signal of an FMDV 2A StopGo reporter; AID 1159524; human cells with a luciferase reporter of 2A StopGo recoding; control for the full effect not named in the record; 410,000 compounds, 1.2% hits; Potency, µM (titrated, usually from 57.9 µM), without a hit: at the highest dose signal change, negative = less light; active = well fitted falling curve with a large enough effect; inconclusive = small, poorly fitted or top-dose-only effect; inactive = no such curve, though single readings can be large or run the other way; tested in HEK293T cells; further: on the % scale 0 is the no-effect control and ±100 the full control effect; nearly all actives have a fitted effect of over 45% in size; luciferase light after 4 h
RE007 growth inh = less growth of the S. pombe RE007 Vpr strain. 360,000 compounds, 0.21% hits. S. pombe RE007 Vpr strain, BacTiter-Glo ATP luminescence, 24 h; control for the full effect not named in the record. AID 651644. Potency, µM (series often up to 92.2 µM), for inactives: at the top dose activity change, negative = less growth; active = well fitted falling curve with a large enough effect; inconclusive = small, poorly fitted or top-dose-only effect; inactive = no such curve, though single readings can be large or run the other way;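 further: on the % scale 0 is the no-effect control and ±100 the full control effect; nearly all actives have a fitted effect of over 50% in size; the assay follows cell death caused by Vpr and the record does not say whether a fall means rescue or toxicity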
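Fission yeast RE007 carrying one integrated HIV-1 vpr copy, seeded at OD 0.01 in PMG+AL medium with 23 nL pinned compound. Grown 24 h at 30 degrees; viability read by BacTiter-Glo luminescence after 5 min.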
Lassa entry inh = Lassa virus entry inhibition; Lassa virus pseudotype entry inhibition, cell reporter; control for the full effect not named in the record; Potency, µM (doses to about 37.9 µM), for inactives: at the top dose activity change, negative = inhibition, actives largely listed as inhibitors; 300,000 compounds, 1.2% hits; AID 540256; active means well fitted inhibition curve with a large enough effect; inconclusive means small, poorly fitted or top-dose-only effect, or effect the other way; inactive means flat fitted curve, though single readings scatter; tested in HEK293 cells; further: on the % scale 0 is the no-effect control and ±100 the full control effect; nearly all actives have a fitted effect of over 50% in size; luciferase read-out
Active calls of the source: *; ? = inconclusive; nt = no result given; [ ] = dose if it differs, or a comment. Unless noted, the call rests on the fitted dose curve; in most records, active means well fitted curve in the direction sought with a large enough effect; inconclusive means small, poorly fitted or top-dose-only effect, or another doubt; inactive means no such curve, though single readings can be large; an effect the other way counts as inactive or inconclusive. Potency means the concentration at half of the fitted maximal effect.

SMILES	Cruzain Triton	NS1 function inh	Marburg entry inh	SARS PLP yeast	Cruzain inh noDet	2A StopGo	RE007 growth inh	Lassa entry inh
Cc1ccc(S(=O)(=O)N2CCN(c3c([N+](=O)[O-])cc(C(F)(F)F)cc3[N+](=O)[O-])CC2)cc1	-3.3%	-2%	9%	4%	?	0%	8%	-19%
CC(OC(=O)C1=COCCO1)C(=O)NC1(C#N)CCCCC1 (configuration not stated)	nt	nt	5%[46.1 µM]	-1%	nt	-1%	-8%	1%[46.1 µM]
Cc1ccccc1/C=N\NC(=O)c1ccc(Cn2cccn2)o1	-5.9%	-14%	23%	3%	-6%	49%[activator]	-5%	?
Cc1ccc(-c2noc(-c3ccc(NC4CCCC4)c([N+](=O)[O-])c3)n2)cc1	-3.5%	nt	4%[46.1 µM]	nt	5%	9%	nt	23%[46.1 µM]
COc1ccc(Nc2nc(NC(C)(C)C)nc(N3CCCC3)n2)c(OC)c1	-3.8%	-159%	5.2µM*	-34%	7%	?	-2%	-21%
CC(C)Sc1nc2sc3c(c2c(=O)n1-c1ccccc1)CCCC3	-3.2%	nt	nt	nt	4%	4%	nt	-22%[46.1 µM]
N=C1C(c2nc3ccccc3[nH]2)=C(O)CN1c1ccccc1	-3.5%	-7%	-7%	-15%	-2%	46%[activator]	4%	?
O=C1CC(c2ccccc2)=Nc2ccc(Br)cc2N1	nt	-7%	?	-1%	nt	7%	-6%	?
O=c1c2cc3c(=O)n(CC4CCCO4)c(=O)c3cc2c(=O)n1CC1CCCO1 (configuration not stated)	-1.9%	16%	-3%	2%	-14%	6%	6%	4%
CC(C)N=C(NS(=O)(=O)c1ccccc1)C(Cl)(Cl)Cl	-6.1%	-32%	?	-29%	0%	0%	0%	?
Cc1[nH]c2ccccc2c(=O)c1C(=O)/C=C/c1ccccc1	nt	-5%	nt	-3%	nt	13µM*	-10%	nt
CC(=O)Nc1ccc(C2=NN(c3ccccc3)C(c3cccs3)C2)cc1 (configuration not stated)	nt	nt	-5%[46.1 µM]	-2%	nt	1%	51%	-20%
Cc1noc(C)c1COC(=O)c1ccc(N(C)C)cc1	nt	nt	-14%[46.1 µM]	5%	nt	9%	-13%	-9%[46.1 µM]
CC(=O)Nc1ccc(Oc2nc(C)cc(C)n2)cc1	12%	5%	-2%[46.1 µM]	3%	-4%	5%	3%	7%
CC(=O)c1cccc(NC(=O)C2COc3ccccc3O2)c1 (configuration not stated)	nt	0%	nt	2%	nt	51%[activator]	-6%	nt
O=C(CSCc1ccc(F)cc1)N1CCOCC1	6.0%	7%	4%	3%	8%	49%[activator]	-1%	12%
COc1ccc(C(CNC(=O)c2cccc(S(=O)(=O)N3CCc4ccccc43)c2)N(C)C)cc1 (configuration not stated)	nt	nt	?	5%	nt	-12%	-9%	-48%
O=S(=O)(c1ccccc1)c1cnc(-c2ccccc2)nc1N1CCCCC1	nt	0%	nt	-1%	nt	-18%	1%	nt
CSc1ncccc1C(=O)OCC(=O)c1ccc2c(c1)NC(=O)CO2	nt	-1%	nt	0%	nt	-3%	7%	nt
O=C(CSc1nc2ccccc2c(=O)[nH]1)Nc1ccc(S(=O)(=O)N2CCCC2)cc1	-7.6%	-8%	-2%	-3%	-6%	2%	14%	-1%
O=S(=O)(N/N=C\c1cccnc1)c1ccccc1	-0.4%	8%	27%	15%	-4%	26%	-9%	-3%
Cc1nc2ccccn2c(=O)c1NC(=O)c1ccc(C(F)(F)F)cc1	-2.8%	nt	nt	nt	-14%	15%	nt	17%[46.1 µM]
O=C(N/N=C/c1ccc(Br)cc1)c1cc[n+](Cc2ccccc2)cc1	-2.0%	13%	27%	-18%	8%	16%	-14%	13%
COc1ccc(OCC(=O)Nc2nc3cc4c(cc3s2)OCCO4)cc1	nt	nt	4%[46.1 µM]	-6%	nt	-14%	0%	24%[46.1 µM]
CCc1ccc(NC(=O)CC2C(=O)N(c3cccc(C)c3)C(=O)N2Cc2cccs2)cc1 (configuration not stated)	-8.8%	nt	nt	nt	0%	9%	nt	-10%[46.1 µM]
O=C(c1cccs1)N(Cc1cccnc1)c1nc2c(Cl)cccc2s1	-6.8%	nt	nt	nt	1%	-13%	nt	1%[46.1 µM]
C/C(=C(\C#N)C(=O)NCc1ccccc1)N(C)C	0.1%	14%	?	6%	-2%	-20%	5%	7%
Cc1c(C)c2c(OCC(=O)N[C@@H](Cc3ccccc3)C(=O)O)cc3c(c2oc1=O)CCC(C)(C)O3	nt	20%	nt	0%	nt	-15%	15%	nt
CC(=O)c1cccc(N(C(=O)Cn2nnc3ccccc32)C(C(=O)NC2CCCCC2)c2cn(C)nc2C)c1 (configuration not stated)	1.4%	14%	10%	-6%	1%	nt	2%	4%
Cc1nnc2ccc(N3CCC4(CC3)OCCO4)nn12	-0.8%	-2%	?	1%	-6%	4%	9%	34%[14.3 µM]
COc1ccc(C(=O)N(C)c2ccccc2C(=O)NCCc2ccccc2)cc1	nt	4%	?	6%	nt	14%	11%	4µM*
N#CC1(c2ccccc2)CCCN1C(=O)c1ccco1 (configuration not stated)	6.5%	-2%	7%[46.1 µM]	7%	-3%	4%	15%	?
O=[N+]([O-])c1cc(C(F)(F)F)ccc1SCC(O)CO (configuration not stated)	nt	1%	3%[46.1 µM]	0%	nt	-1%	-8%	-12%
Cc1ccc(S(=O)(=O)NCC(c2ccco2)N2CCc3ccccc3C2)cc1 (configuration not stated)	nt	nt	?	1%	nt	65%[activator]	29%	-2%
Cc1ccc2c(=O)cc(C(=O)NCc3ccccc3)oc2c1	-4.3%	nt	-12%[46.1 µM]	nt	3%	-17%	nt	-25%[46.1 µM]
COc1ccc(-n2cc(-c3ccc4c(c3)OCO4)n(CC(=O)Nc3cc(Cl)ccc3C)c2=O)cc1	-2.5%	nt	?	nt	-9%	-21%	nt	-3%[46.1 µM]
CCN1CCC2(CC1)N=C(c1ccc(F)cc1)C(=S)N2C(=O)c1ccc(C)cc1	-19%	4%	?	9%	-12%	-20%	-4%	8.9µM*
Cc1cccc(NC(=O)CSc2nc(-c3ccccc3)c(C#N)c(=O)[nH]2)c1C	-4.4%	-8%	?	5%	17%	13%	2%	1%
CCCCN1C(=O)CC(C(=O)O)C1c1ccc(OC)cc1 (configuration not stated)	-1.1%	6%	2%	1%	0%	-8%	3%	7%
CCCCCCCC(=O)N/N=C/c1ccncc1	nt	-7%	13%	-2%	nt	7%	3%	-32%

The final three records of the part above lead into the next:
SMILES	Cruzain Triton	NS1 function inh	Marburg entry inh	SARS PLP yeast	Cruzain inh noDet	2A StopGo	RE007 growth inh	Lassa entry inh
Cc1cccc(NC(=O)CSc2nc(-c3ccccc3)c(C#N)c(=O)[nH]2)c1C	-4.4%	-8%	?	5%	17%	13%	2%	1%
CCCCN1C(=O)CC(C(=O)O)C1c1ccc(OC)cc1 (configuration not stated)	-1.1%	6%	2%	1%	0%	-8%	3%	7%
CCCCCCCC(=O)N/N=C/c1ccncc1	nt	-7%	13%	-2%	nt	7%	3%	-32%
Cc1ccc(C(=O)N2CCN(C)CC2)cc1S(=O)(=O)N1CCOCC1	nt	4%	8%	1%	nt	6%	8%	14%
O=C(Cc1c(O)c2ccccc2[nH]c1=O)NCc1ccccc1F	2.3%	-4%	-2%	10%	15%	-18%	5%	2%
COc1cc(OC)cc(C(=O)NCCCCCCNC(=O)c2cc(OC)cc(OC)c2)c1	nt	nt	?	1%	nt	-26%	-13%	17%
Cc1cc(NC(=O)c2c(Cl)c(C)nn2C)no1	5.4%	6%	27%[46.1 µM]	nt	1%	15%	1%	-3%
COC(=O)c1ccc(NC(=S)NN2CCOCC2)cc1	nt	2%	nt	1%	nt	40%[activator]	0%	nt
O=c1oc2ccccc2cc1-c1nnc(NCc2ccco2)s1	-3.0%	-11%	?	9%	-24%	0%	9%	?
CCOC(=O)C1=C(OCc2ccc(Cl)cc2)C2C=C(C)C=CC2N=C1 (configuration not stated)	-4.4%	6%	-19%	-6%	-16%	-22%	2%	-23%
CCC(C)(C)NC(=O)C(c1ccc(OC)cc1)N(C(=O)CCC(=O)Nc1cc(C)on1)c1ccc(OC)c(OC)c1 (configuration not stated)	nt	-4%	23%[46.1 µM]	-1%	nt	-14%	-3%	0%
CCCCCC(=O)N/N=C(\C)c1ccccn1	7.8%	-4%	7.1µM*	0%	5%	26%	?	?
CCOc1ccc(S(N)(=O)=O)cc1-c1nc2c(C(C)(C)C)nn(C)c2c(=O)[nH]1	nt	-2%	-2%[46.1 µM]	1%	nt	25%	-6%	-23%
COc1ccc(S(=O)(=O)Nc2ccc(S(=O)(=O)N3CCOCC3)cc2)cc1C	-9.6%	-51%	-8%	8%	3%	46%[activator]	9%	11%
COc1ccc(C(=O)N=c2nc3ccccn3s2)cc1	-1.0%	-11%	?	-6%	-13%	-73%	?	?
COC(=O)CC1SC(=O)NC1=Nc1ccc(O)cc1 (configuration not stated)	0.8%	15%	11%	-1%	-8%	-6%	10%	-5%
O=C(Nc1ccncc1)C1CCN(S(=O)(=O)c2ccc(Cl)cc2)CC1	nt	nt	-28%[46.1 µM]	3%	nt	-24%	-9%	2%
COc1ccc(CNC(=O)Nc2cc(C)ccc2C)cc1	nt	0%	nt	0%	nt	15%	5%	nt
Cn1c(N)c(C(=O)COC(=O)c2ccc3c(c2)OCCO3)c(=O)n(C)c1=O	-6.3%	-19%	-4%[46.1 µM]	5%	-4%	22%	-10%	15%
COC(=O)c1nc2cc3c(cc2c(C)c1C(=O)OC)OCO3	-3.4%	2%	8%	-1%	9%	12%	-5%	19%
Cc1ccc(C)c(CN2C(=O)c3ccccc3S(=O)(=O)c3ccc(C(=O)N4CCc5ccccc54)cc32)c1	-0.5%	nt	?	nt	32µM*	13%	nt	-20%[46.1 µM]
